Source: PubChem BioAssay
Sa ugtP lethal: growth inhibition of ugtP-null S. aureus, primary screen, RN4220 ugtP deletion, OD600 | 16 h; some inactives read as strong as hits | growth inhibition, % (test concentration not listed) | 330,000 tested, 0.54% active | AID 1259309, 2017;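 active means z-score under -3 and OD600 up to 0.15 on both plates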;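 further: plate controls were untreated wells for no effect and antibiotic for full effect; wells of about 80 µL received 100 nL stock; the first replicate is given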
PrP UTR inh: inhibition of PrP 5' UTR reporter expression. cell-based PrP 5' UTR mRNA reporter, plate reader. inhibition, % (test concentration not listed). 340,000 tested, 0.35% active. AID 488862, 2010;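 active means every replicate at 50% or more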;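 further: 0 = median of the neutral control wells; tested in H4 reporter cells; numbers are from one replicate; inactives centre near -14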
Sa RN4220 lethal: growth inhibition of S. aureus RN4220, primary screen, OD600. 16 h. inhibition, % (test concentration not listed). 330,000 tested, 0.33% active;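 active means z-score of -3 or lower and OD600 up to 0.18 on both plates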;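 further: plate controls were untreated cells for no effect and reference antibiotic for full effect; stock transfer was 100 nL into about 80 µL; one replicate is shown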
Mtb hypoxia rep: PubChem AID 1159583. M. tuberculosis hypoxia-regulated fluorescent reporter, fluorescence. 300,000 tested, 0.1% active. fluorescence inhibition, % (test concentration not listed);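 active means 35 to 45% if threefold the growth effect, above 45% if 1.5-fold the growth effect; inactive means the rest, general growth blockers included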;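 further: wells of about 50 µL received 100 nL stock; 0% = vehicle wells and 100% = reference inhibitor wells; whole bacteria with a GFP reporter of the hypoxia response; strong numbers were not always called active; many hits fall short of the cut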
BJeLR lethal: MLPCN primary cell-based screen for lethality selective to Ras in HRASV12 cells; BJeLR (HRASV12) viability, CellTiter-Glo ATP luminescence, 48 h; reference of the scale not given here; inhibition, % (concentration not given with the values); 300,000 tested, 0.17% active; AID 1554, 2009;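 active means replicate mean above 50%; inconclusive means above 50% but judged a plate artefact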;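 further: 50 nL library stock added to about 25 µL; numbers are from one replicate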
Autofluor counter: flagged as autofluorescent in microsphere protease counterscreen; fluorescence intensity (test concentration not listed); 360,000 tested, 3.1% active; compound autofluorescence counterscreen, microsphere flow cytometry; stronger effect = higher value; AID 624483;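 active means at least 3 SD above the mean of all compounds, about 16000 in these data; inconclusive means too few beads counted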;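 further: 100 nL of 1 mM stock went into each well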
Mtb hypoxia rep growth: second read-out of Mtb hypoxia rep, no call of its own (marks repeat the call); growth inhibition, %; measured here: M. tuberculosis growth (absorbance);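 0% = vehicle and 100% = reference antibiotic; read after six days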
Numbers without * were called inactive; ? = inconclusive; nt = not tested or not shown; & = joins results of further samples.

SMILES	Sa ugtP lethal	PrP UTR inh	Sa RN4220 lethal	Mtb hypoxia rep	Mtb hypoxia rep growth	BJeLR lethal	Autofluor counter
Fc1ccc(CSc2ccc(-c3ccco3)nn2)cc1	6	-7	1.9	-2	0	4	7472
COC(=NC(C)C)NC(C)C	1	nt	-0.3	8	-3	12	nt
Cc1ccc(N(NC(=O)C(O)(c2ccccc2)c2ccccc2)C(=O)CCl)cc1	-2	-27	-0.6	9	7	-1	2118
COc1ccccc1NC(=O)c1ccc(S(=O)(=O)N(C)C)cc1	13	-18	-1.7	8	10	1	5327
O=C(COC(=O)C1CC1)NC(=O)NCc1ccccc1	6	-23	8.1	16	12	-3	3294
Cc1c(NC(=S)N/N=C/C=C/c2ccccc2)c(=O)n(-c2ccccc2)n1C	nt	1	nt	nt	nt	10	6553
COc1ccc2c(=O)c(-c3cnn(-c4ccccc4)c3)c(C)oc2c1	11	5	14	7	3	0	10843
COCCOC(=O)C1=C(C)NC2(O)c3ccccc3C(=O)C12O (stereo not given)	9	14	2.3	4	2	-8	2718
COc1ccc(CN2CCc3ccccc3C2)cc1Br	11	-22	2.1	6	2	-2	3577
CCCCCC(=O)Nc1cc(S(=O)(=O)N2CCOCC2)ccc1N1CCN(C)CC1	0	-13	5.0	-5	-2	-3	5802
O=C(NNC1=C(C(=O)C(F)(F)F)CCC1)c1cccc(Cl)c1	99*	-27	100*	1	5	6	3381
COc1ccc(N=Cc2cc(Cc3ccccc3Cl)cc([N+](=O)[O-])c2O)cc1OC	-3	-13	-2.7	11	5	6	2757
CCOC(=O)N/N=C/c1ccc(Oc2ccccc2)cc1	nt	-32	nt	nt	nt	0	4687
Clc1ccc(-c2cnc(Oc3ccccc3)nc2)cc1	12	-85	6.2	nt	nt	1	2405
CCCn1c2c(c(O)c(C(=O)Nc3nccs3)c1=O)CCCC2	-5	-13	-8.5	22	15	3	2826
COC(=O)N1CCN(c2ccc(C)cc2)C(C)C1 (stereo not given)	2	-16	0.6	6	-3	-20	4411
COCCCNC(=O)/C(C#N)=C/c1cc(C)[nH]c1C	3	6	6.7	7	2	-5	4795
COCCCNC(=O)/C(C#N)=C/c1c(N2CCN(C)CC2)nc2c(C)cccn2c1=O	-2	-9	-2.3	15	0	3	4019
C/C(=N\OCC(=O)NC(C)C)c1cccs1	nt	-5	nt	nt	nt	-13	4517
CCN(CC)S(=O)(=O)c1ccc(C(C)NC(=O)C2CCCN2C(=O)c2cccs2)cc1 (stereo not given)	-1	-25	-0.2	0	1	nt	3565
CC(/C=N/n1c(-c2cc(C)[nH]n2)n[nH]c1=S)=C\c1ccccc1	nt	-3	nt	nt	nt	3	2076
Cc1ccc(S(=O)(=O)N2CCCC2C(=O)Nn2cnnc2)cc1 (stereo not given)	1	-111	3.4	-1	-7	-3	9822
Cc1cc(C)n(CCNC(=O)CCc2nnc(CCc3ccccc3)o2)n1	8	-10	5.9	8	3	4	2417
CCOc1ccc(/C=C2\SC(N3CCCCC3)=NC2=O)cc1	11	-6	6.4	7	-5	-4	2939
CC(C)CNC(=O)NC(=O)COC(=O)c1ccccc1Sc1ccc(C(F)(F)F)cc1[N+](=O)[O-]	6	4	4.2	7	8	-1	2463
O=C(c1ccccc1)c1ccc(OC(=O)N2CCOCC2)cc1	6	-24	2.1	17	5	-4	4540
O=C(Nc1cc(-c2ccccc2)nn1-c1c(Cl)cccc1Cl)c1ccc(F)cc1	3	-13	-0.4	17	8	nt	4030
CCCCC(Sc1nc(N)c(NC(=O)c2ccco2)c(=O)[nH]1)C(=O)O (stereo not given)	0	-10	0.8	3	2	1	5299
O=C(CCCN1C(=O)/C(=C\c2cccs2)SC1=S)NNC(=O)c1cccnc1	-13	-17	6.1	7	9	-14	4510
C#Cc1ccc([C@H]2C=C(C(=O)N3CCN(Cc4ccccc4)CC3)O[C@@H](OCc3ccc(CO)cc3)C2)cc1	nt	-22	nt	nt	nt	-1	3091

Part of the list above in order of formula weight, high to low.
SMILES	Sa ugtP lethal	PrP UTR inh	Sa RN4220 lethal	Mtb hypoxia rep	Mtb hypoxia rep growth	BJeLR lethal	Autofluor counter
C#Cc1ccc([C@H]2C=C(C(=O)N3CCN(Cc4ccccc4)CC3)O[C@@H](OCc3ccc(CO)cc3)C2)cc1	nt	-22	nt	nt	nt	-1	3091
CC(C)CNC(=O)NC(=O)COC(=O)c1ccccc1Sc1ccc(C(F)(F)F)cc1[N+](=O)[O-]	6	4	4.2	7	8	-1	2463
O=C(CCCN1C(=O)/C(=C\c2cccs2)SC1=S)NNC(=O)c1cccnc1	-13	-17	6.1	7	9	-14	4510
O=C(Nc1cc(-c2ccccc2)nn1-c1c(Cl)cccc1Cl)c1ccc(F)cc1	3	-13	-0.4	17	8	nt	4030
COCCCNC(=O)/C(C#N)=C/c1c(N2CCN(C)CC2)nc2c(C)cccn2c1=O	-2	-9	-2.3	15	0	3	4019
Cc1ccc(N(NC(=O)C(O)(c2ccccc2)c2ccccc2)C(=O)CCl)cc1	-2	-27	-0.6	9	7	-1	2118
CCCCC(Sc1nc(N)c(NC(=O)c2ccco2)c(=O)[nH]1)C(=O)O (stereo not given)	0	-10	0.8	3	2	1	5299
COc1ccccc1NC(=O)c1ccc(S(=O)(=O)N(C)C)cc1	13	-18	-1.7	8	10	1	5327
COc1ccc(CN2CCc3ccccc3C2)cc1Br	11	-22	2.1	6	2	-2	3577
CCOc1ccc(/C=C2\SC(N3CCCCC3)=NC2=O)cc1	11	-6	6.4	7	-5	-4	2939
Fc1ccc(CSc2ccc(-c3ccco3)nn2)cc1	6	-7	1.9	-2	0	4	7472
CCOC(=O)N/N=C/c1ccc(Oc2ccccc2)cc1	nt	-32	nt	nt	nt	0	4687
Clc1ccc(-c2cnc(Oc3ccccc3)nc2)cc1	12	-85	6.2	nt	nt	1	2405
COCCCNC(=O)/C(C#N)=C/c1cc(C)[nH]c1C	3	6	6.7	7	2	-5	4795
COC(=O)N1CCN(c2ccc(C)cc2)C(C)C1 (stereo not given)	2	-16	0.6	6	-3	-20	4411
C/C(=N\OCC(=O)NC(C)C)c1cccs1	nt	-5	nt	nt	nt	-13	4517
COC(=NC(C)C)NC(C)C	1	nt	-0.3	8	-3	12	nt

Remaining list, next part
SMILES	Sa ugtP lethal	PrP UTR inh	Sa RN4220 lethal	Mtb hypoxia rep	Mtb hypoxia rep growth	BJeLR lethal	Autofluor counter
Cc1onc(-c2c(Cl)cccc2Cl)c1C(=O)NCCc1ccc(S(N)(=O)=O)cc1	2	-21	5.9	19	7	-1	?
COc1ccccc1CC(=O)Nc1cccc(C(=O)NN2C(=O)c3ccccc3C2=O)c1	5	-18	2.6	11	6	9	2593
N#Cc1c(C(F)(F)F)cc(Cc2ccccc2)nc1SCC(=O)NCC(=O)O	7	-17	-2.5	-6	8	-1	4202
Cn1ccnc1SCC(=O)NC1CCCCC1	-4	-8	-10	2	9	-2	3278
COCCCNC(=O)C(=O)Nc1ccc2c(c1)N(S(=O)(=O)c1cccs1)CCC2	1	31	3.2	3	1	34	6297
O=C(Nc1nc(-c2ccc3ccccc3c2)cs1)c1ccc(N2C(=O)CCC2=O)cc1	1	-27	0.7	9	10	8	6103
Cc1ccc(-c2cc(=O)c3cc(Cl)ccc3[nH]2)cc1	0	nt	-11	8	6	8	nt
O=C(NCc1ccccc1)c1ccc2ccccc2n1	-6	-32	4.7	nt	nt	-11	4101
CCN(CC)C(=O)CN1C(=O)c2cccc3cccc1c23	17	-15	8.0	11	11	-11	3271
CCN(C(=O)c1ccccc1F)c1nc(-c2ccc(OC)cc2)cs1	90*	-51	-6.8	18	17	2	3827
COC(=O)C1=C(C)N(CC2CC2)C(=NCCN2CCOCC2)N[C@H]1c1ccccc1	nt	-14	nt	nt	nt	-1	3863
O=C(NCCc1ccccn1)c1nc(Cn2cc([N+](=O)[O-])cn2)no1	5	-15	0.2	-2	5	4	5917
O=C(NCCCn1ccnc1)c1cnn2c1NC(c1ccccc1)CC2C(F)(F)F (stereo not given)	1	-34	4.8	7	6	-19	7740
CC1CC=CC2C1C(=O)N(Cc1ccccc1)C2c1ccc(C=Cc2ccccc2)cc1F (stereo not given)	-3	nt	-3.0	6	2	nt	nt
CC(C)(C)c1nnc(NC(=O)Nc2ccc(Cl)cc2)s1	5	-23	4.8	7	-3	6	4456
O=c1c2c(-c3cccs3)csc2ncn1N=Cc1ccc(OC(F)F)cc1	-7	nt	1.4	-5	-5	nt	nt
COc1ccc(C)cc1Nc1nc(-c2ccccc2O)nc2ccccc12	91*	-28	53	3	-1	8	3803
Cc1nnc(-c2ccccc2)c(=O)n1N=Cc1c(O)ccc2ccccc12	-4	nt	-9.7	-3	10	nt	nt
O=C(COC(=O)CC1CC2CCC1C2)NC(=O)NC1CCCC1 (stereo not given)	1	-22	4.4	3	6	-1	4127
CCn1c(=O)cc(OCC(=O)N2CCC3(CC2)OCCO3)c2ccccc21	-12	-18	-7.9	-6	-9	1	6157
O=C(O)c1cccc(Nc2ncnc3ccc(Br)cc23)c1	0	-22	4.1	16	-2	1	4463
Cc1ccc(NS(=O)(=O)c2c(F)cc(F)c(Cl)c2F)cc1S(=O)(=O)N1CCOCC1	-2	3	12	-4	2	nt	3761
CCOc1ccc(NC(=O)COC(=O)c2ncc(Cl)c(Cl)c2Cl)cc1	5	-20	7.0	-1	2	-13	2592
CCCCNC(=O)C(C1CCCCC1)N(CCN(C)C)C(=O)CCCN1C(=O)NC(c2ccc(-c3ccccc3)cc2)C(C(=O)OCc2ccccc2)=C1C (stereo not given)	30	nt	60	20	20	nt	nt
CC(Cc1ccccc1)[n+]1cc(/N=C(\[O-])N(C)C)on1 (stereo not given)	0	-27	-0.5	-2	1	-6	3759
O=C(O)CCNC1CCCCC1	-1	-12	-0.4	13	6	2	2734
CC(=O)c1ccc(S(=O)(=O)N2CCN(c3ccccc3F)CC2)cc1	5	-10	15	-3	1	3	4442
O=C(Nc1ccc(Cl)cc1)N[C@@H]1c2c(ccc3ccccc23)OC[C@@H]1CO	-11	-4	4.4	7	-2	-17	23698*
CCN1CCN(C(=S)Nc2ccc(Cl)cc2)CC1	2	-14	3.4	nt	nt	4	3680
CCCN(CC(=O)Nc1ccc(F)c(F)c1F)C(=O)c1ccc2c(c1)NC(=O)CS2	-3	-4	0.5	-2	0	nt	4827
CC(=NNS(=O)(=O)c1ccc(C)cc1)[C@H]1C[C@@H]1c1ccccc1	3	nt	1.8	1	3	nt	nt
N#Cc1cccc(NC(=S)Nc2ccccc2)c1	-1	-13	-0.7	4	7	-3	2532
CN(Cc1ccccc1)S(=O)(=O)c1ccc(Cl)c(C(=O)NCCCN2CCOCC2)c1	3	6	1.7	2	16	3	5166
CCOc1ccc(NC(=O)C(=O)NCCN2CCN(S(=O)(=O)c3ccccc3)CC2)cc1	5	13	7.0	9	-1	0	5946
CC(C)(C)n1cnc2cc(NCc3cccs3)ccc21	5	-79	11	-9	3	-17	3228
COc1ccc(C(=O)N2CCC(C(=O)c3ccc(F)cc3)CC2)cc1	-1	-25	6.3	8	13	-7	9120
COc1ccc2c(c1OC)C(=O)OC2C1c2c(cc3c(c2OC)OCO3)CCN1C (stereo not given)	1&5&-8	-17&-8&-15	4.2&8.7&1.5	7&1	7&1	1&-2	5287&5626&4143
Cc1[nH]c2ccccc2c1SCC(=O)O	0	-9	3.6	10	9	-3	3080
O=C(NCc1cc([N+](=O)[O-])ccc1O)c1cccc(NS(=O)(=O)c2ccccc2)c1	-6	-19	24	1	-11	2	5291
Cc1ccc(CN2CCN(N=Cc3ccco3)CC2)c(C)c1	15	nt	2.3	-3	3	nt	nt
